From PubChem
HCMV NEC inh = inhibitors of HCMV UL50-UL53 interaction, biochemical, HTRF. inhibition, % (no concentration beside the values). HCMV UL50-UL53 nuclear egress complex (human cytomegalovirus). 190,000 compounds, 0.15% hits. normalized percent inhibition. AID 1918969, 2023;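 active = both replicates at 50% or more, plus weaker picks with an unusually low signal ratio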;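 note: stock transfer was 100 nL into about 20 µL; 0% = negative control wells and 100% = wells with untagged competitor protein; inactives centre near -12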
GIV Gai3 FP = inhibitors of GIV peptide binding to Galpha-i3, primary screen, biochemical, fluorescence polarization, FITC-GIV GBA peptide, rat Galphai3. Guanine nucleotide-binding protein G(i) subunit alpha-3 (Rattus norvegicus), P08753. 90 min; active compounds read low; scaled: aluminum fluoride 0%, vehicle 100%. percent of control (FP), % (concentration not given with the values). 210,000 compounds, 0.42% hits;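 active = replicate mean at 85% of control or lower, very high polarization wells dropped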;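 note: wells of about 15 µL received 100 nL stock; the first replicate is given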
Target sequence (P08753 whole entry, looked up): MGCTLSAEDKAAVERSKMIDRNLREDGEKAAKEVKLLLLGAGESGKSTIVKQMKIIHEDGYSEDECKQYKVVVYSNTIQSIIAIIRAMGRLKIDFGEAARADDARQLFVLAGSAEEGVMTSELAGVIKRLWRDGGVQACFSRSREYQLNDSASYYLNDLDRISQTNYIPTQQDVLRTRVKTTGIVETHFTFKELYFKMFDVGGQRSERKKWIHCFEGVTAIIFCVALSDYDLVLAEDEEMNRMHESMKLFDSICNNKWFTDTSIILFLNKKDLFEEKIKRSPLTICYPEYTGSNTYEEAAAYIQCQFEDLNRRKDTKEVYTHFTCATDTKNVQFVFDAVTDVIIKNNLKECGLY
Sa growth inh = S. aureus growth inhibition at 42 and 30 °C, primary screen, LtaS inhibitor project, RN4220, two temperatures; OD600, 20 h, 42 °C; active compounds read low; relative growth, % (no concentration beside the values); 170,000 compounds, 0.53% hits; AID 720641, 2013;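 active = growth at 42 °C up to 50% and 20 or more points under that at 30 °C, or under 10% at both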;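 note: 300 nL library stock went into each well; scaled to the means of positive and negative controls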
Sa growth inh second temp = recorded beside Sa growth inh, whose call it bears; relative growth, %; measured here: growth at 30 °C;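 optical density after 20 h as mean of two plates; 100% = untreated growth and lower means inhibition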
* hit, by the source's call; nt = no result given; & = joins results of further samples.

SMILES	HCMV NEC inh	GIV Gai3 FP	Sa growth inh	Sa growth inh second temp
CCOC(=O)N1CCc2c(sc3c2c(=O)n(Cc2ccccc2)c(=O)n3Cc2c(F)cccc2Cl)C1	-33	104	92	86
COc1ccc(-c2nc(SCC(=O)NC3CCCC3)c(-c3ccc(OC)cc3)[nH]2)cc1	-5	101	112	86
COc1cc(C(=O)CBr)cc(OC)c1OC	-6	nt	79	88
CC(C)CCn1c(=O)c2sccc2n2c(CCCC(=O)Nc3ccc(C(C)C)cc3)nnc12	nt	100	96	93
CCOC(=O)c1cc2c(=O)n3ccccc3nc2n(CC2CCCO2)c1=NC(=O)c1ccccc1C (configuration not stated)	-30	103	102	96
CC(C)(CO)NCC(=O)Nc1ccc(Cl)cn1	-22	100	100	99
O=c1[nH]cc(N(CCO)CCO)c(=O)[nH]1	-13	94	102	86
CCN1CCN(Cc2c(O)ccc3c(=O)c(-c4ccc(OC)c(OC)c4)c(C(F)(F)F)oc23)CC1	-4	101	nt	nt
CC(C)N(Cc1ccccc1)C(=O)Cn1ncc2c(=O)oc3ccccc3c21	-8	103	92	79
CCOc1ccc(NC(=O)Cn2cc(S(=O)(=O)NC)c(S(=O)(=O)NC)c2)cc1	nt	99	88	91
COc1ccc(-c2cnc(C)o2)cc1S(=O)(=O)Nc1ccc(S(N)(=O)=O)cc1	2	106	nt	nt
CCOC(=O)C1CCCN(CCN(C)C)C1 (configuration not stated)	-2	108	98	87
COc1ccc(CC(=O)NCc2cc(C)oc2C(F)(F)F)cc1OC	-37	102	82	87
c1ccc2nc(C3=NCCN3)ccc2c1	-51&-65	103	nt	nt
CC(c1ccccc1)C(CC(=O)O)C(=O)O (configuration not stated)	nt	97	82	99
COc1ccc(S(=O)(=O)N2CCCCC2)cc1C(=O)Nc1cccc(C(F)(F)F)c1	nt	103	103	99
Cc1cc(C(=O)OCC(=O)c2ccc(NC(=O)CC(C)C)cc2)no1	0	nt	98	99
Fc1ccc(CNc2nc3ccccc3c3nc(-c4ccccc4)nn23)cc1	-16	95	nt	nt
COc1ccccc1NC(=O)Nc1nc(CC(=O)N2c3ccccc3CC2C)cs1 (configuration not stated)	-9	108	nt	nt
O=C(Nc1ccc(-c2nc3ccccc3s2)cc1)C1COc2ccccc2O1 (configuration not stated)	-13	101	nt	nt
COC(=O)c1ccc(COC(=O)c2ccc(N3C(=O)c4c(C)nc5ccccc5c4C3=O)cc2)cc1	15	101	nt	nt
O=C(COC(=O)C1CC(O)CN1S(=O)(=O)c1ccc(F)cc1)Nc1nccs1 (configuration not stated)	-9	nt	85	96
Cc1ccc2c(c1)C(c1ccccc1)N(C(=O)COc1ccc(Cl)cc1Cl)CC(=O)N2 (configuration not stated)	-20	103	81	67
CN(C(=O)Cc1noc2ccccc12)c1ccccc1	nt	105	123	90
COc1ccc(N2CCN(S(=O)(=O)CCNC(=O)c3c(F)cccc3Cl)CC2)cc1	nt	105	103	92
SMILES	HCMV NEC inh	GIV Gai3 FP	Sa growth inh	Sa growth inh second temp
O=S(=O)(Cc1ccccc1)N1CCCC1c1cccc(F)c1 (configuration not stated)	-8	100	nt	nt
CCc1ccc(CNC(=O)c2sc3nc[nH]c(=O)c3c2C)cc1	nt	101	112	96
CCC1(CC)C(=O)N(CC(=O)OC)C(=O)N(C)C1=S	nt	96	123	95
COc1cccc(Nc2c(C)c(C)nc3ncnn23)c1	6	105	nt	nt
CCCCN1C(=O)CN(C2CCCCCC2)C(=O)C1c1ccc(OCCC)c(OC)c1 (configuration not stated)	nt	101	96	91
Cc1ccc(N(CC(=O)N2CCN(c3ccccc3)CC2)S(=O)(=O)c2c(C)n[nH]c2C)cc1	-21	107	106	91
CCOC(=O)c1ccc(NS(=O)(=O)c2cc3c(cc2C)n(C)c(=O)c(=O)n3C)cc1	nt	102	128	90
c1ccc(Cn2nnc3cnccc32)cc1	-19	nt	86	90
Cc1noc(C)c1CSc1ccccc1C(=O)NC(C)c1ccc2c(c1)OCCO2 (configuration not stated)	-30	nt	55	82
Cc1ccc(OCc2nc(SCC(=O)c3ccc(S(=O)(=O)N4CCCC4)cc3)n[nH]2)cc1	-1	nt	98	96
CCOC(=O)C1CCN(Cc2cn[nH]c2-c2ccc(C)cc2)CC1	4	105	103	81
CCOCCOC(=O)c1ccc2c(c1)N(CC(=O)Nc1ccccc1F)C(=O)c1ccccc1S2	5	105	nt	nt
CC(Sc1nnnn1C)C(=O)NC(C)c1ccc(Cl)cc1Cl (configuration not stated)	6	nt	104	95
CCn1c2ccccc2c2cc(/C=N/O)ccc21	-15	99	37	50
COc1ccc(-n2cnc3cc(C(=O)NC4CCCCCC4)ccc32)cc1	nt	107	90	79
COc1ccc(CCN=C(N)Nc2nc(C)cc(C)n2)cc1OC	-10&5	101	72	44
CC1Cc2ccccc2N1C(=O)CCS(=O)(=O)c1ccc2c(c1)n(C)c(=O)c(=O)n2C (configuration not stated)	6	109	102	97
CCc1ccccc1OCC(=O)OCC(=O)Nc1cc(C)on1	-31	nt	79	93
Cc1n[nH]c(=O)c2c(NC(=O)COC(=O)Cc3c(F)cccc3Cl)oc(C)c12	-31	nt	87	94
CCC(CO)NS(=O)(=O)c1cc(-c2nnc(OC)c3ccccc23)ccc1C (configuration not stated)	-32	96	82	86
Cc1[nH]c2ccccc2c1C=Nc1ccccc1Br	-27	nt	100	77
Cc1ccc(NCC(=O)N2CC3(C)CC2CC(C)(C)C3)cc1F (configuration not stated)	-8	nt	94	89
COc1cc(C)c(S(N)(=O)=O)cc1C(C)C	3	101	99	106
O=c1c2sccc2n2c(=O)[nH]nc2n1Cc1ccco1	18	107	nt	nt
Nc1ccc(C(=O)N(CCO)CCO)cc1	-16	104	104	107
SMILES	HCMV NEC inh	GIV Gai3 FP	Sa growth inh	Sa growth inh second temp
NC1=Nc2ccccc2CC1	-32	nt	102	89
CCN1CCCC1CNC(=O)C1CCN(c2nnc(C)c3c(C)n(-c4ccccc4)nc23)CC1 (configuration not stated)	-7	105	nt	nt
NC(=O)SCc1nc2c3ccccc3ncn2n1	-60	nt	52	48
O=C(Nc1cccc(I)c1)C(=O)c1c(O)[nH]c2ccccc12	-42	nt	92	74
Cc1ccccc1/C=C/C1=NCCN1	-27	103	nt	nt
CCc1ccc(NC(=O)C2CCCN(S(=O)(=O)c3cccc4nsnc34)C2)cc1 (configuration not stated)	-33	99	93	90
NCCS(=O)(=O)c1ccc(C(F)(F)F)cn1	-11	102	107	100
Cc1ccc(C)c(N2CCN(c3ccc(S(=O)(=O)C(C)(C)C)nn3)CC2)c1	-29	98	nt	nt
CN(Cn1c(=O)oc2ccccc21)C1CCCCC1	-57	nt	90	85
Cc1nccc(-c2cccc(NC(=O)c3nc4ccccc4s3)c2)n1	-8	101	93	74
Cc1ccccc1-c1ccc2cccc(C)c2n1	-2	nt	109	86
CCc1ccc(NC(=O)C(C)Nc2ccc(Br)cc2)cc1 (configuration not stated)	0	nt	104	82
Cc1ccnc(NS(=O)(=O)c2ccc(NC(=O)c3cc4ccccc4oc3=O)cc2)n1	-20	100	nt	nt
Cc1ccc2cc(CN(C)C3CCS(=O)(=O)C3)c(Cl)nc2c1C (configuration not stated)	-2	nt	109	100
CC(C)(C)C(=O)CSc1nc2ccccc2n1S(=O)(=O)c1ccccc1	-5	98	111	93
Cc1nc(-c2ccc(OC(F)F)cc2)cs1	-8	103	99	91
CCCc1c(C(=O)NCc2ccc(OC)c(OC)c2)cnn1-c1ccccc1	-15	90	114	82
COc1ccccc1C(c1c(C)[nH][nH]c1=O)C(C#N)C#N (configuration not stated)	-3	98	98	80
COc1cc(OC)cc(C2C(C#N)=C(N)Nc3oc(C)nc32)c1 (configuration not stated)	4	nt	102	71
Cn1c(=O)oc2cc(S(=O)(=O)N3CC(=O)N(CCc4ccccc4)C(=O)C3)ccc21	nt	102	89	97
Cc1nnsc1C(=O)N1CCN(c2ccc(F)cc2)CC1	-3	94	96	92
Cc1ccc(-c2ccc(O)c(C)c2)cc1	-18	nt	58	55
Brc1ccc(-c2nc3ccccc3s2)s1	-16	nt	106	78
COc1ccc(NS(=O)(=O)c2ccc(CCN3C(=O)c4cccnc4C3=O)cc2)cc1	-66	108	97	92
CCn1cc(S(=O)(=O)NCCc2ccccc2)cn1	-33	100	96	78
SMILES	HCMV NEC inh	GIV Gai3 FP	Sa growth inh	Sa growth inh second temp
O=C(O)CN1C(=O)COc2ccccc21	2	101&102	101	87
O=C(Nc1ccc(F)cc1F)c1ccc2c(c1)CCN2S(=O)(=O)c1ccc(Cl)cc1	-37	107	95	72
Cc1ccc(-c2nnc(NCc3nc4ccccc4[nH]3)c3ccccc23)cc1S(=O)(=O)N1CCCCC1	16	108	nt	nt
CCC(C)NC(=O)c1ccc2c(c1)NC(=O)C(CC(C)C)N2 (configuration not stated)	-28	101	90	88
COc1cccc(CNC(=O)c2cc(=O)[nH]c3ccc(S(=O)(=O)N4CCCC4)cc23)c1	-8	109	97	94
Cc1ccc(S(=O)(=O)NCCc2csc3nc(-c4ccccc4C)nn23)cc1	nt	101	118	101
CCOC(=O)c1ccc(NC(=S)N2CCCN(Cc3cc(C)ccc3C)C2)cc1	nt	103	121	51
CN(C)S(=O)(=O)c1ccc2c(c1)nc(CCC(=O)NCC1CCCCC1)n2C	-13	nt	99	97
COC(=O)c1ccc(CSc2ncnc3sc(C)c(C)c23)o1	-8	nt	98	75
COc1cccc(-c2[nH]nc(N)c2C)c1	8	102	102	76
CCC1COC(c2cccn2C)=N1 (configuration not stated)	-7	100	115	89
C=CCSc1nc2sc3c(c2c(=O)n1CC=C)CCCC3	-28	94	98	95
S=C(NCc1csc2ccccc12)NCC1CC1	-37	102	76	65
Cc1ccc(-n2ncc3c(NCCCN4CCOCC4)ncnc32)cc1Cl	nt	112	128	96
Cc1ccc(CNc2nc3ccccc3c3nc(-c4cccc(C)c4)nn23)cc1	0	101	95	83
CC1CCC(NC(=O)Cn2ncc3c4ccccc4n(Cc4ccc(Cl)cc4)c3c2=O)CC1 (configuration not stated)	-8	146	108	91
CC(=O)N(Cc1cccs1)C1(C(=O)NC2CCCC2)CCCCC1	7	100	85	94
CCOC(=O)c1ccccc1NC(=O)c1ccc(N2CCCC2=O)cc1	-27	nt	98	92

Of the compounds above, 20 contain an aryl methoxy group.
SMILES	HCMV NEC inh	GIV Gai3 FP	Sa growth inh	Sa growth inh second temp
COc1ccc(-c2nc(SCC(=O)NC3CCCC3)c(-c3ccc(OC)cc3)[nH]2)cc1	-5	101	112	86
COc1cc(C(=O)CBr)cc(OC)c1OC	-6	nt	79	88
CCN1CCN(Cc2c(O)ccc3c(=O)c(-c4ccc(OC)c(OC)c4)c(C(F)(F)F)oc23)CC1	-4	101	nt	nt
COc1ccc(-c2cnc(C)o2)cc1S(=O)(=O)Nc1ccc(S(N)(=O)=O)cc1	2	106	nt	nt
COc1ccc(CC(=O)NCc2cc(C)oc2C(F)(F)F)cc1OC	-37	102	82	87
COc1ccc(S(=O)(=O)N2CCCCC2)cc1C(=O)Nc1cccc(C(F)(F)F)c1	nt	103	103	99
COc1ccccc1NC(=O)Nc1nc(CC(=O)N2c3ccccc3CC2C)cs1 (configuration not stated)	-9	108	nt	nt
COc1ccc(N2CCN(S(=O)(=O)CCNC(=O)c3c(F)cccc3Cl)CC2)cc1	nt	105	103	92
COc1cccc(Nc2c(C)c(C)nc3ncnn23)c1	6	105	nt	nt
CCCCN1C(=O)CN(C2CCCCCC2)C(=O)C1c1ccc(OCCC)c(OC)c1 (configuration not stated)	nt	101	96	91
COc1ccc(-n2cnc3cc(C(=O)NC4CCCCCC4)ccc32)cc1	nt	107	90	79
COc1ccc(CCN=C(N)Nc2nc(C)cc(C)n2)cc1OC	-10&5	101	72	44
CCC(CO)NS(=O)(=O)c1cc(-c2nnc(OC)c3ccccc23)ccc1C (configuration not stated)	-32	96	82	86
COc1cc(C)c(S(N)(=O)=O)cc1C(C)C	3	101	99	106
CCCc1c(C(=O)NCc2ccc(OC)c(OC)c2)cnn1-c1ccccc1	-15	90	114	82
COc1ccccc1C(c1c(C)[nH][nH]c1=O)C(C#N)C#N (configuration not stated)	-3	98	98	80
COc1cc(OC)cc(C2C(C#N)=C(N)Nc3oc(C)nc32)c1 (configuration not stated)	4	nt	102	71
COc1ccc(NS(=O)(=O)c2ccc(CCN3C(=O)c4cccnc4C3=O)cc2)cc1	-66	108	97	92
COc1cccc(CNC(=O)c2cc(=O)[nH]c3ccc(S(=O)(=O)N4CCCC4)cc23)c1	-8	109	97	94
COc1cccc(-c2[nH]nc(N)c2C)c1	8	102	102	76
